Source: PubChem BioAssay
T cruzi inh = inhibitors of intracellular T. cruzi growth, primary screen, luminescence, NIH3T3 host cells. T. cruzi beta-gal in NIH3T3, 90 h. inhibition, % (no concentration beside the values). 300,000 compounds, 1.4% hits;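 active means mean inhibition across valid replicates above about 55%, limit read from the data; inconclusive means mean below that limit but half or more replicates reach it; inactive means mean below it, under half of replicates reach it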;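 further: signal also drops with host cell toxicity which is not excluded here; 0% = plate median of DMSO wells and 100% = zero luminescence signal; higher percent means less beta-gal luminescence so fewer parasites; stock transfer was 50 nL into about 50 µL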
RanGTP-Imp inh = inhibitors of RanGTP-importin-beta interaction, primary screen, biochemical, FRET, CFP-Ran, YFP-importin-beta, homogeneous | cell-free CFP-Ran/YFP-importin-beta FRET ratio | 300,000 compounds, 1.1% hits | inhibition, % (no concentration beside the values) | Ran GTPase (GTP-bound) - importin-beta complex;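 active means most replicates above 15%; inconclusive means exactly half above 15%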;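 further: 0% = DMSO wells and 100% = Ran loaded with GDP instead of GTP; wells of about 40 µL received 100 nL stock; the first replicate is given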
FGF22 binding = binders of human FGF22 protein, primary screen, FGF22 synaptogenesis inhibitor project, biophysical, thermal shift, single point. Fibroblast growth factor 22 (Homo sapiens), Q9HCT0. recombinant FGF22 thermal shift, SYPRO orange fluorescence; percent of sucrose octasulfate shift, DMSO zero. calls only at 9.99 µM. 340,000 compounds, 1.5% hits. AID 651658, 2012;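 active means melting point raised past a set limit in the mean and every replicate; inconclusive means no clear call; three in four hits are not shown here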
Target sequence (Q9HCT0 whole entry, looked up): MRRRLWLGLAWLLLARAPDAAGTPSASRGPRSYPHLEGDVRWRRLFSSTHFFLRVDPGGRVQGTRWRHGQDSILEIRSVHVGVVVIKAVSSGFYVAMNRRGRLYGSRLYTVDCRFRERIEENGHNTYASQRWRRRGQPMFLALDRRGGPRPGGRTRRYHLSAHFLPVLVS
Beta apoptosis = inhibitors of cytokine-induced beta cell apoptosis, primary screen, luminescence. INS-1E cytokine-induced death, ATP luminescence, 48 h; percent of positive-control rescue, neutral wells zero. protection from apoptosis, % (concentration not given with the values). 300,000 compounds, 0.8% hits;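 active means all replicates at 75% or more, or half of them and the mean; inconclusive means half reach 75% but not the mean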;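 further: 0% = cytokine-treated negative control wells and 100% = positive control rescue; higher means more ATP so stronger rescue from cytokine killing; wells of about 40 µL received 100 nL stock; the first replicate is given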
ALR inh = inhibitors of human ALR sulfhydryl oxidase, primary screen, biochemical, H2O2 detection, HRP-luminol luminescence, single point; FAD-linked sulfhydryl oxidase ALR (Homo sapiens), P55789; purified ALR, DTT oxidation; inhibition, % (concentration not given with the values); 290,000 compounds, 3.8% hits; AID 485317, 2010;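 active means mean and each replicate at 75% or more; inconclusive means only one of the two met; inactive means neither met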;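 further: stock transfer was 7.5 nL into about 7.5 µL; 0% = neutral wells and 100% = wells with inactivated enzyme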
Target sequence (P55789 whole entry, looked up): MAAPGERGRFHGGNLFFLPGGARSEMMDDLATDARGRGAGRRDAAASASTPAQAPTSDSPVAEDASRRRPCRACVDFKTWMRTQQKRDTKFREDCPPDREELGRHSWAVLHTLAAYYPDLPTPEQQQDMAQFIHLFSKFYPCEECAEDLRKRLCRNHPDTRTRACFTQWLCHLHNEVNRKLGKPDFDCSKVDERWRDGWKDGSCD
Calb FLC = C. albicans growth inhibition with fluconazole, primary screen, CaCi-2 strain, Alamar Blue fluorescence; AID 1979, 2009; 300,000 compounds, 0.57% hits; growth inhibition, % (no concentration beside the values); C. albicans CaCi-2 (fluconazole-resistant clinical isolate) + fluconazole, 48 h;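 active means most replicates above 75%; inconclusive means exactly half above 75%; inactive means most below 75%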;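 further: all wells also contain fluconazole at 8 µg/ml as a sub-toxic cotreatment; 0% = median of DMSO wells and 100% = median of geldanamycin control wells; wells of about 8 µL received 7.5 nL stock; the first replicate is given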
MLL AF4-AF9 inh = inhibitors of AF4 peptide binding to AF9, primary screen, biochemical, AlphaScreen, biotin-AF4 peptide, FLAG-AF9, single point; Protein AF-9 (Homo sapiens), P42568; inhibition, % at 10 µM; 350,000 compounds, 0.47% hits;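 active means every replicate reaching a set inhibition limit, whatever the replicate mean, cut at about 25% in these data; inconclusive means mean inhibition reaches that limit but some replicates miss it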;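 further: 0% = plate neutral control median and 100% = total signal loss; the record names both 10 and 1 µM as test concentration; the first replicate is given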
Target sequence (P42568 whole entry, looked up): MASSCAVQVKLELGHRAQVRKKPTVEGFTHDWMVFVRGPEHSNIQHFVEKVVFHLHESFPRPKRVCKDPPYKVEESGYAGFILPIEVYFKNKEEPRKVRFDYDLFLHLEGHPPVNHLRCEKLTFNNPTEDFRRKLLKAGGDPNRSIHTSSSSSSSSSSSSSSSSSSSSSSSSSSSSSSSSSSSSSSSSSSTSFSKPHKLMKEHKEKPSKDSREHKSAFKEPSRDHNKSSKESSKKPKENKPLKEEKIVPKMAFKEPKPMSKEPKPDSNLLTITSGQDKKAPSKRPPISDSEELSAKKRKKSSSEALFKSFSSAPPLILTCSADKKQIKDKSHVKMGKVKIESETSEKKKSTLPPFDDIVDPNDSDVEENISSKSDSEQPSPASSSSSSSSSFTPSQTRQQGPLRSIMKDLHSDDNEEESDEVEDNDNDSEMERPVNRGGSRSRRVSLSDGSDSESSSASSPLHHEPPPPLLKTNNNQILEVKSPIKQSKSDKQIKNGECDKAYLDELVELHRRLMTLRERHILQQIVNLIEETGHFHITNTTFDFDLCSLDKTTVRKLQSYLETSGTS
rRNA inh HTS = reduced GFP signal of wild-type E. coli, primary screen, bacterial rRNA inhibitor project, GFP/RFP fluorescence, OD600, single point; E. coli WT GFP vs humanized-ribosome RFP mutants, 24 h; hits give low values; DMSO median 0, no signal -100; GFP signal change (wild-type ribosome), % (test concentration not listed); 350,000 compounds, 1.6% hits; AID 720706, 2013;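 active means significant combined selectivity score with lowered wild-type GFP, culture density cut under 30%, mutant RFP and density less affected; inactive means any of these conditions unmet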; further: one replicate is shown; some compounds called inactive have numbers as strong as hits
rRNA inh HTS OD600 = recorded beside rRNA inh HTS, whose call it bears; OD600 change, %; measured here: OD600 growth;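 optical density of the mix in the first replicate; 0 = DMSO median and -100 = no signal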
rRNA inh HTS RFP = further read-out of rRNA inh HTS, marked with its call; RFP signal change, %; measured here: RFP humanized mutant strains;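 first replicate; 0 = DMSO median and -100 = no signal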
* hit, by the source's call. Only part of the results is shown; rates above refer to the full screens.

How did CCc1ccc(CN(C)C(=O)c2cc(S(=O)(=O)N3CCOCC3)ccc2N2CCCC2)cc1 do in these assays?
T cruzi inh: 10.3; RanGTP-Imp inh: 8.5; FGF22 binding: inactive; Beta apoptosis: 0.6; ALR inh: -16.7; Calb FLC: -0.5; MLL AF4-AF9 inh: 3.8; rRNA inh HTS: -29.4; rRNA inh HTS OD600: -40.0; rRNA inh HTS RFP: -0.3

Results for Cc1cc(Cl)ccc1N(CC(=O)NCc1ccccc1)S(C)(=O)=O ?
T cruzi inh: -1.9; RanGTP-Imp inh: -1.1; FGF22 binding: inactive; Beta apoptosis: 0.7; ALR inh: -3.2; Calb FLC: 36.8; MLL AF4-AF9 inh: -0.6; rRNA inh HTS: 0.4; rRNA inh HTS OD600: 6.7; rRNA inh HTS RFP: 8.5

What do the screens show for `COc1ccc(-n2c(=S)[nH]c3[nH]ncc3c2=O)cc1`?
T cruzi inh: 2.7; RanGTP-Imp inh: 0.4; FGF22 binding: inactive; Beta apoptosis: -3.7; ALR inh: -10.0; Calb FLC: -1.0; MLL AF4-AF9 inh: -9.6; rRNA inh HTS: 0.4; rRNA inh HTS OD600: 1.9; rRNA inh HTS RFP: -1.4

Results for CN1CCN(C(=S)NC(=O)c2ccc(-c3ccccc3)cc2)CC1 ?
T cruzi inh: 33.7; RanGTP-Imp inh: -1.4; FGF22 binding: inactive; Beta apoptosis: 10.7; ALR inh: -11.0; Calb FLC: 6.2; MLL AF4-AF9 inh: 0.6; rRNA inh HTS: -44.8; rRNA inh HTS OD600: -63.5; rRNA inh HTS RFP: -11.1

How did O=C(CCCn1c(=S)[nH]c2ccsc2c1=O)Nc1ccc2c(c1)OCCO2 do in these assays?
T cruzi inh: 5.0; RanGTP-Imp inh: 0.1; FGF22 binding: inactive; Beta apoptosis: 4.0; ALR inh: 56.4; Calb FLC: 11.3; MLL AF4-AF9 inh: -0.4; rRNA inh HTS: -20.7*; rRNA inh HTS OD600: -7.3*; rRNA inh HTS RFP: -2.4*

What do the screens show for `C=CCn1cc(C(C)=O)c(=O)[nH]c1=O`?
T cruzi inh: -6.5; RanGTP-Imp inh: -1.3; FGF22 binding: inactive; Beta apoptosis: -3.5; ALR inh: 1.9; Calb FLC: -1.5; MLL AF4-AF9 inh: -1.8; rRNA inh HTS: 11.2; rRNA inh HTS OD600: 14.3; rRNA inh HTS RFP: -0.6

Results for Cn1ccc2cc(NC(=O)Nc3cccnc3)ccc21 ?
T cruzi inh: -2.5; RanGTP-Imp inh: 2.0; FGF22 binding: inactive; Beta apoptosis: -1.0; ALR inh: 64.2; MLL AF4-AF9 inh: 4.3

Results for O=C(COC(=O)c1ccc(Br)cc1)NCc1ccc(F)cc1 ?
T cruzi inh: -6.1; RanGTP-Imp inh: -2.5; FGF22 binding: inactive; Beta apoptosis: -9.7; ALR inh: -5.8; Calb FLC: 1.8; MLL AF4-AF9 inh: -0.5; rRNA inh HTS: 9.8; rRNA inh HTS OD600: 5.3; rRNA inh HTS RFP: 3.4

What do the screens show for `CCCC(=O)NCC(c1cccs1)S(=O)(=O)c1ccc(C)cc1` (stereo not given)?
T cruzi inh: -0.4; RanGTP-Imp inh: 2.3; FGF22 binding: inactive; Beta apoptosis: -5.1; ALR inh: 1.4; Calb FLC: -10.7; MLL AF4-AF9 inh: -7.2; rRNA inh HTS: 3.0; rRNA inh HTS OD600: 11.7; rRNA inh HTS RFP: -2.4

What do the screens show for `NC(=O)CN1C(=O)C(=O)N(Cc2cccc(C(F)(F)F)c2)C1=O`?
T cruzi inh: -4.4; RanGTP-Imp inh: inconclusive; FGF22 binding: inactive; Beta apoptosis: -2.6; ALR inh: -5.9; Calb FLC: -11.6; MLL AF4-AF9 inh: 1.3; rRNA inh HTS: -1.6; rRNA inh HTS OD600: -4.2; rRNA inh HTS RFP: -2.9

How did CCC(=O)n1nc(-c2ccco2)nc1SCc1ccccc1 do in these assays?
T cruzi inh: -13.9; RanGTP-Imp inh: 4.3; ALR inh: 8.4; Calb FLC: 10.7

How did Cn1c(C(=O)N2CCN(Cc3ccc4c(c3)OCO4)CC2)cc2c(=O)n(C)c3ccccc3c21 do in these assays?
T cruzi inh: 20.5; RanGTP-Imp inh: -4.3; FGF22 binding: inactive; Beta apoptosis: 3.3; ALR inh: -75.6; Calb FLC: 8.8; MLL AF4-AF9 inh: 10.7; rRNA inh HTS: -7.4; rRNA inh HTS OD600: -4.9; rRNA inh HTS RFP: 0.4

What do the screens show for `CN(Cc1nc(Cc2cccc(F)c2)no1)CC1COCCO1` (stereo not given)?
T cruzi inh: 2.2; RanGTP-Imp inh: 2.8; FGF22 binding: inactive; Beta apoptosis: -4.4; ALR inh: -0.7; Calb FLC: -19.8; MLL AF4-AF9 inh: -0.9; rRNA inh HTS: 8.7; rRNA inh HTS OD600: 15.8; rRNA inh HTS RFP: 2.0

What do the screens show for `CC(NC(=O)NCCCn1ccnc1)(C(F)(F)F)C(F)(F)F`?
T cruzi inh: 1.6; RanGTP-Imp inh: 0.1; Beta apoptosis: -3.9; ALR inh: -30.9; Calb FLC: 0.6

Results for Cc1ccc(C(=O)Nc2cc(=O)n(C)c(=O)n2C)cc1C ?
T cruzi inh: -23.2; RanGTP-Imp inh: 1.1; FGF22 binding: inactive; Calb FLC: -1.2; MLL AF4-AF9 inh: 7.1; rRNA inh HTS: 10.6; rRNA inh HTS OD600: 11.7; rRNA inh HTS RFP: -0.4

How did CC(C)(C)n1nnnc1CN1CCN(C2CCCC2)CC1 do in these assays?
T cruzi inh: -0.2; RanGTP-Imp inh: 2.8; Beta apoptosis: -4.2; ALR inh: 0.4; Calb FLC: -2.5

How did O=C(N/N=C1\CCc2ccccc21)c1ccc(O)cc1 do in these assays?
T cruzi inh: -3.8; RanGTP-Imp inh: -3.1; FGF22 binding: inactive; Beta apoptosis: -0.3; ALR inh: -2.2; Calb FLC: 16.9; MLL AF4-AF9 inh: -1.8; rRNA inh HTS: 12.3; rRNA inh HTS OD600: 15.4; rRNA inh HTS RFP: 1.6

Results for O=C(Nc1ccnn1C1CCN(Cc2ccccc2F)CC1)C1CCCC1 ?
T cruzi inh: 5.9; RanGTP-Imp inh: -0.2; FGF22 binding: inactive; Beta apoptosis: -2.4; ALR inh: 6.3; Calb FLC: 8.2; MLL AF4-AF9 inh: 3.8; rRNA inh HTS: -0.3; rRNA inh HTS OD600: 5.3; rRNA inh HTS RFP: -1.0

Results for CC(C(=O)Nc1ccccc1)c1ccc(-c2ccccc2)c(F)c1 (stereo not given) ?
T cruzi inh: 26.0; RanGTP-Imp inh: -2.5; Beta apoptosis: 10.8; ALR inh: -1.7; Calb FLC: 2.1

Results for Cn1c(Cl)c(/C=N/OC(=O)C(C)(C)C)c2ccccc21 ?
T cruzi inh: -6.9; RanGTP-Imp inh: 3.9; FGF22 binding: inactive; Beta apoptosis: -4.0; ALR inh: -18.6; Calb FLC: -27.6; MLL AF4-AF9 inh: -1.5; rRNA inh HTS: 9.0; rRNA inh HTS OD600: 6.6; rRNA inh HTS RFP: -0.7

What do the screens show for `O=C(c1cccs1)N1CCCC(N2CCN(c3ccc(F)cc3)CC2)C1` (stereo not given)?
T cruzi inh: -1.8; RanGTP-Imp inh: -1.4; FGF22 binding: inactive; Beta apoptosis: -0.6; ALR inh: 59.3; Calb FLC: -12.7; MLL AF4-AF9 inh: -1.3; rRNA inh HTS: 0.2; rRNA inh HTS OD600: 3.6; rRNA inh HTS RFP: 0.7

How did CCOc1ccc(NC(=O)Nc2nc3ccc(S(C)(=O)=O)cc3s2)cc1 do in these assays?
T cruzi inh: 7.0; RanGTP-Imp inh: 0.7; FGF22 binding: inactive; Beta apoptosis: -4.6; ALR inh: -16.5; Calb FLC: 36.7; MLL AF4-AF9 inh: -3.8; rRNA inh HTS: 6.8; rRNA inh HTS OD600: 9.4; rRNA inh HTS RFP: 2.2

How did Cc1ccc(N2C(=O)N(CC(=O)N3CCCc4ccccc43)C(=O)C2C)cc1 (stereo not given) do in these assays?
T cruzi inh: -3.5; RanGTP-Imp inh: 4.1; FGF22 binding: inactive; Beta apoptosis: 2.0; ALR inh: 2.0; Calb FLC: 4.6; MLL AF4-AF9 inh: 3.7; rRNA inh HTS: 14.1; rRNA inh HTS OD600: 12.5; rRNA inh HTS RFP: -10.4

What do the screens show for `CC(C)NC(=O)C1CCN(C2CCN(C(=O)C3=CCCC3)CC2)CC1`?
T cruzi inh: -5.1; FGF22 binding: inactive; Beta apoptosis: 4.6; ALR inh: 1.7; MLL AF4-AF9 inh: -1.5; rRNA inh HTS: 12.6; rRNA inh HTS OD600: 11.1; rRNA inh HTS RFP: -2.4

Results for Cc1ccc(S(=O)(=O)N(C)CC(=O)N2CCN(Cc3ccc4c(c3)OCO4)CC2)cc1 ?
T cruzi inh: -0.6; RanGTP-Imp inh: 6.1; FGF22 binding: inactive; Beta apoptosis: 7.2; ALR inh: -3.4; Calb FLC: -3.7; MLL AF4-AF9 inh: -1.2; rRNA inh HTS: 10.8; rRNA inh HTS OD600: 8.9; rRNA inh HTS RFP: 2.4

How did COC(=O)Nc1sc2c(c1C(=O)NCc1ccco1)CCCC2 do in these assays?
T cruzi inh: 3.8; RanGTP-Imp inh: -2.7; Beta apoptosis: -2.8; ALR inh: -3.7; Calb FLC: inconclusive

How did O=S(Cc1ccc(Cl)cc1)CC(O)(c1ccccc1)c1ccccc1 (stereo not given) do in these assays?
T cruzi inh: -3.8; RanGTP-Imp inh: 1.7; Beta apoptosis: -9.8; ALR inh: -6.1; Calb FLC: 17.9

How did Cc1ccc(NC(=S)N(C)C)cc1C do in these assays?
T cruzi inh: -14.2; RanGTP-Imp inh: -1.2; FGF22 binding: inactive; Beta apoptosis: 1.1; ALR inh: 1.4; Calb FLC: -4.7; MLL AF4-AF9 inh: -3.3; rRNA inh HTS: 8.4; rRNA inh HTS OD600: 5.2; rRNA inh HTS RFP: -4.5

Results for O=C(CCN1C(=O)c2ccccc2C1=O)Nc1ccc(F)cc1 ?
T cruzi inh: -11.6; RanGTP-Imp inh: -2.6; Beta apoptosis: -2.4; ALR inh: -5.4; Calb FLC: 4.1

Results for O=[N+]([O-])c1ccc(Cl)c(/C=N/NC(=S)Nc2ccccc2)c1 ?
T cruzi inh: 13.0; RanGTP-Imp inh: -2.3; Beta apoptosis: 6.1; ALR inh: -8.8; Calb FLC: -21.3
